UUG fidelity: modulators of yeast start codon fidelity, primary screen, whole organism, S. cerevisiae, single point, plate reader | activity score, % at 18.7 µM | S. cerevisiae UUG-firefly luciferase reporter, luminescence/redox ratio | hit rate 0.13% among 350,000;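 active means replicate mean at a twofold rise or more, about +100% in these data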;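 further: firefly luciferase made from a UUG start codon reports start codon fidelity; reporter light over untreated wells divided by growth signal over untreated wells; some hits fall short of that in this replicate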
HIV Env fusion: inhibitors of HIV-1 Env-driven cell-cell fusion, primary screen, HeLa-JRFL effector, CEM21 target cells, luciferase | inhibition, % at 12.3 µM | hit rate 1.1% among 360,000;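 active means mean replicate inhibition score of at least 50 and every replicate individually at or above 50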;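 further: 0% = plate neutral controls and 100% = maraviroc near 300 nM; one replicate is shown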
* marks the source's active call; other numbers are inactive results; [ ] = dose if it differs, or a comment. Only part of the results is shown; count on the stated rates, not on these rows.

| UUG fidelity | HIV Env fusion | SMILES |
| --- | --- | --- |
| 12 | 21[16.7 µM] | C[C@H]1CN([C@@H](C)CO)C(=O)c2cccc(NC(=O)Nc3ccc4c(c3)OCO4)c2O[C@@H]1CN(C)S(=O)(=O)c1ccccc1 |
| 7 | 25[16.7 µM] | C/C=C/c1ccc2c(c1)O[C@@H](CN(C)C(C)=O)[C@@H](C)CN([C@@H](C)CO)S2(=O)=O |
| -4 | -3[16.7 µM] | C[C@@H]1CCCCO[C@H](CN(C)C(=O)Nc2ccc3c(c2)OCO3)[C@@H](C)CN([C@H](C)CO)C(=O)c2cc(NC(=O)Nc3ccccc3)ccc2O1 |
| -7 | -6[16.7 µM] | O=C(NCC[C@@H]1CC[C@@H](NS(=O)(=O)c2cccc(F)c2)[C@H](CO)O1)C1CCOCC1 |
| 12 | 5[16.7 µM] | C[C@@H]1CCCCO[C@H](CN(C)S(=O)(=O)c2cn(C)cn2)[C@H](C)CN([C@@H](C)CO)C(=O)c2cc(NC(=O)Nc3cccc4ccccc34)ccc2O1 |
| -3 | 1[16.7 µM] | O=C(C[C@H]1C=C[C@@H](NC(=O)c2cccc(F)c2)[C@H](CO)O1)NCc1ccccc1 |
| -2 | -5[16.7 µM] | CNC(=O)C[C@@H]1CC[C@H]2[C@@H](COc3ccc(NC(=O)c4cccs4)cc3C(=O)N2C)O1 |
| -6 | -1[16.7 µM] | COc1ccc(S(=O)(=O)Nc2ccc3c(c2)C(=O)N([C@H](C)CO)C[C@@H](C)[C@@H](CN(C)C(=O)Nc2c(C)noc2C)O3)cc1 |
| -4 | 0[16.7 µM] | CNC(=O)C[C@H]1CC[C@H]2[C@H](COc3ccc(NC(=O)Nc4c(C)noc4C)cc3C(=O)N2C)O1 |
| -4 | -10[16.7 µM] | CN(C)CCCCCCNC(=O)[C@H]1C[C@H]2C(=O)N3CCC[C@H]3C(=O)N2[C@H]1c1cccc(OCCO)c1 |
| 0 | -9[16.7 µM] | CNC[C@@H]1Oc2ccc(NC(=O)c3ccncc3)cc2CC(=O)N([C@H](C)CO)C[C@@H]1C |
| -12 | 0[16.7 µM] | CO[C@@H]1CN(C)C(=O)c2ccc(NC(=O)c3ccccc3F)cc2OC[C@H](C)NC[C@H]1C |
| -2 | 19[16.7 µM] | C[C@H]1CN([C@@H](C)CO)C(=O)c2cc(NS(=O)(=O)c3ccc(F)cc3)ccc2O[C@@H]1CN(C)Cc1ccc(C(F)(F)F)cc1 |
| -10 | 9[16.7 µM] | O=C(N[C@H]1CC[C@H](CCNS(=O)(=O)c2ccc(F)cc2)O[C@@H]1CO)c1cccc(F)c1 |
| 0 | 13[16.7 µM] | CC(=O)N(C)C[C@H]1Oc2cc(-c3ccc(C)cc3)ccc2S(=O)(=O)N([C@H](C)CO)C[C@H]1C |
| -8 | -10[16.7 µM] | C[C@@H]1CN([C@H](C)CO)C(=O)c2cc(C#Cc3ccccc3)cnc2O[C@@H]1CN(C)C(=O)CN(C)C |
| 16 | 2[16.7 µM] | C[C@@H]1CN([C@H](C)CO)C(=O)c2cc(NS(C)(=O)=O)ccc2O[C@@H](C)CCCCO[C@@H]1CN(C)Cc1ccc(Cl)c(Cl)c1 |
| 1 | -25[16.7 µM] | C[C@@H]1CCCCO[C@H](CN(C)C(=O)Nc2ccc(F)cc2)[C@@H](C)CN([C@H](C)CO)C(=O)c2cc(NS(=O)(=O)c3cn(C)cn3)ccc2O1 |
| 5 | -5[16.7 µM] | Cc1noc(C)c1S(=O)(=O)N(C)C[C@@H]1OCCCC[C@@H](C)Oc2ccc(NC(=O)C3CCCCC3)cc2C(=O)N([C@@H](C)CO)C[C@@H]1C |
| -4 | -12[16.7 µM] | C[C@H](CO)N1C[C@H](C)[C@H](CN(C)C(=O)NC2CCCCC2)OCCCC[C@H](C)Oc2ccc(NC(=O)Nc3ccccc3)cc2C1=O |
| -7 | 14[16.7 µM] | C[C@@H]1CN([C@@H](C)CO)C(=O)c2cccc(NS(=O)(=O)c3ccc(F)cc3)c2O[C@@H]1CN(C)S(=O)(=O)c1cn(C)cn1 |
| 8 | 18[16.7 µM] | CO[C@H]1CN(C)C(=O)c2cc(NS(=O)(=O)CC(F)(F)F)ccc2OC[C@H](C)N(C)C[C@H]1C |
| 20 | 18[16.7 µM] | C[C@@H]1CN([C@H](C)CO)C(=O)c2cc(NS(=O)(=O)c3ccc(Cl)cc3)ccc2O[C@@H](C)CCCCO[C@@H]1CN(C)Cc1ccc(Cl)c(Cl)c1 |
| -8 | 8[16.7 µM] | CO[C@@H]1CN(C)C(=O)c2ccc(NS(C)(=O)=O)cc2OC[C@@H](C)N(C(=O)NC(C)C)C[C@H]1C |
| 7 | 24[16.7 µM] | CCC(=O)N(C)C[C@@H]1Oc2cc(C#Cc3ccncc3)ccc2S(=O)(=O)N([C@H](C)CO)C[C@@H]1C |
| 3 | 0[16.7 µM] | CCCC(O)C#Cc1cnc2c(c1)C(=O)N([C@H](C)CO)C[C@H](C)[C@H](CN(C)C(=O)Nc1ccccc1)O2 (stereo partly drawn) |
| -14 | -14[16.7 µM] | Cc1ccc(S(=O)(=O)N(C)C[C@H]2OCCCC[C@@H](C)Oc3ccc(NC(=O)c4ccccc4)cc3C(=O)N([C@H](C)CO)C[C@@H]2C)cc1 |
| 1 | 14[16.7 µM] | COc1ccc(C#Cc2ccc3c(c2)O[C@H](CN(C)C(=O)c2ccccn2)[C@H](C)CN([C@H](C)CO)S3(=O)=O)cc1 |
| 2 | 11[16.7 µM] | C[C@H](O)C#Cc1cnc2c(c1)C(=O)N([C@H](C)CO)C[C@@H](C)[C@@H](CN(C)C(=O)c1ccc(F)cc1)O2 |
| 8 | -78[16.7 µM] | C[C@@H]1CN([C@@H](C)CO)C(=O)c2cccc(NC(=O)c3ccc(-c4nccs4)cc3)c2O[C@H]1CN(C)Cc1ccc(C(=O)Nc2ccccc2N)cc1 |

Sorted by heavy-atom count (low to high): some entries from above.
| UUG fidelity | HIV Env fusion | SMILES |
| --- | --- | --- |
| -3 | 1[16.7 µM] | O=C(C[C@H]1C=C[C@@H](NC(=O)c2cccc(F)c2)[C@H](CO)O1)NCc1ccccc1 |
| 0 | 13[16.7 µM] | CC(=O)N(C)C[C@H]1Oc2cc(-c3ccc(C)cc3)ccc2S(=O)(=O)N([C@H](C)CO)C[C@H]1C |
| -8 | 8[16.7 µM] | CO[C@@H]1CN(C)C(=O)c2ccc(NS(C)(=O)=O)cc2OC[C@@H](C)N(C(=O)NC(C)C)C[C@H]1C |
| -4 | 0[16.7 µM] | CNC(=O)C[C@H]1CC[C@H]2[C@H](COc3ccc(NC(=O)Nc4c(C)noc4C)cc3C(=O)N2C)O1 |
| -4 | -10[16.7 µM] | CN(C)CCCCCCNC(=O)[C@H]1C[C@H]2C(=O)N3CCC[C@H]3C(=O)N2[C@H]1c1cccc(OCCO)c1 |
| -6 | -1[16.7 µM] | COc1ccc(S(=O)(=O)Nc2ccc3c(c2)C(=O)N([C@H](C)CO)C[C@@H](C)[C@@H](CN(C)C(=O)Nc2c(C)noc2C)O3)cc1 |
| 5 | -5[16.7 µM] | Cc1noc(C)c1S(=O)(=O)N(C)C[C@@H]1OCCCC[C@@H](C)Oc2ccc(NC(=O)C3CCCCC3)cc2C(=O)N([C@@H](C)CO)C[C@@H]1C |

Given with two lines to a compound: part of the list above.
Order of values: UUG fidelity | HIV Env fusion
- C[C@@H]1CCCCO[C@H](CN(C)C(=O)Nc2ccc(F)cc2)[C@@H](C)CN([C@H](C)CO)C(=O)c2cc(NS(=O)(=O)c3cn(C)cn3)ccc2O1
    1 | -25[16.7 µM]
- O=C(C[C@H]1C=C[C@@H](NC(=O)c2cccc(F)c2)[C@H](CO)O1)NCc1ccccc1
    -3 | 1[16.7 µM]

(further entries)
| UUG fidelity | HIV Env fusion | SMILES |
| --- | --- | --- |
| 20 | -11[16.7 µM] | CC(C)C#Cc1ccc([C@@H]2[C@@H](C#N)N(C(=O)c3ccccn3)[C@H]2CO)cc1 |
| 15 | -1[16.7 µM] | C[C@@H]1CCCCO[C@@H](CN(C)S(C)(=O)=O)[C@H](C)CN([C@@H](C)CO)C(=O)c2cc(NC(=O)Nc3cccc4ccccc34)ccc2O1 |
| -2 | -3[16.7 µM] | C[C@@H]1CN([C@H](C)CO)C(=O)c2cc(C3=CCCC3)cnc2O[C@H]1CN(C)Cc1ccccc1 |
| -8 | -16[16.7 µM] | C[C@@H]1CCCCO[C@@H](CN(C)S(=O)(=O)c2ccc(Cl)cc2)[C@@H](C)CN([C@H](C)CO)C(=O)c2cc(NS(=O)(=O)c3ccc(F)cc3)ccc2O1 |
| 1 | -7[16.7 µM] | N#C[C@H]1[C@@H](c2ccccc2)[C@H](CO)N1S(=O)(=O)c1cccc(F)c1 |
| -9 | 23[16.7 µM] | C[C@@H]1CN([C@H](C)CO)C(=O)c2cc(NC(=O)Nc3ccc(C(F)(F)F)cc3)ccc2O[C@@H]1CN(C)S(=O)(=O)c1ccc(Cl)cc1 |
| 13 | -9 | C[C@@H]1CN([C@H](C)CO)C(=O)c2cc(NC(=O)Nc3ccccc3)ccc2O[C@@H](C)CCCCO[C@H]1CN(C)S(C)(=O)=O |
| 2 | 25[16.7 µM] | C[C@H](CO)N1C[C@H](C)[C@@H](CN(C)Cc2ccccc2)Oc2ccc(NC(=O)c3ccncc3)cc2CC1=O |
| -8 | -6[16.7 µM] | CO[C@@H]1CN(C)C(=O)c2cc(NS(=O)(=O)CC(F)(F)F)ccc2OC[C@H](C)N(CCC(F)(F)F)C[C@H]1C |
| -13 | 4[16.7 µM] | C[C@@H]1CN([C@@H](C)CO)C(=O)c2cc(NC(=O)Nc3ccc(C(F)(F)F)cc3)ccc2O[C@@H]1CN(C)S(=O)(=O)c1ccc(F)cc1 |
| 2 | 7[16.7 µM] | C[C@@H]1CN([C@@H](C)CO)C(=O)Cc2cc(NC(=O)Nc3ccc(F)cc3)ccc2O[C@@H]1CN(C)S(=O)(=O)c1ccc(F)cc1 |
| 0 | 0[16.7 µM] | Cc1ccc(S(=O)(=O)N(C)C[C@@H]2Oc3c(NC(=O)Nc4ccc(F)cc4)cccc3C(=O)N([C@H](C)CO)C[C@@H]2C)cc1 |
| -17 | 11[16.7 µM] | C[C@H](CO)N1C[C@H](C)[C@H](CN(C)Cc2ccncc2)Oc2c(NS(=O)(=O)c3ccccc3)cccc2C1=O |
| -3 | 56*[16.7 µM] | COc1ccccc1-c1ccc2c(c1)O[C@H](CN(C)S(=O)(=O)c1ccccc1)[C@H](C)CN([C@H](C)CO)S2(=O)=O |
| 10 | -31[16.7 µM] | C[C@@H]1CN([C@H](C)CO)C(=O)c2cccc(NC(=O)Nc3cccc4ccccc34)c2O[C@H]1CN(C)C(=O)Nc1ccccc1 |
| 8 | -1[16.7 µM] | C[C@@H]1CN([C@H](C)CO)C(=O)c2cc(C#Cc3cccc(F)c3)cnc2O[C@@H]1CN(C)C(=O)C1CCC1 |
| -14 | 83*[16.7 µM] | COc1ccc(NC(=O)Nc2ccc3c(c2)C(=O)N([C@@H](C)CO)C[C@H](C)[C@H](CN(C)S(=O)(=O)c2ccc(OC)cc2)O3)cc1 |
| 16 | 35[16.7 µM] | COc1ccc(NC(=O)Nc2ccc3c(c2)C(=O)N([C@H](C)CO)C[C@@H](C)[C@H](CN(C)Cc2ccc(C(F)(F)F)cc2)OCCCC[C@H](C)O3)cc1 |
| 35 | -6[16.7 µM] | C[C@@H](NC(=O)C[C@@H]1C=C[C@H](NS(=O)(=O)c2cccc(F)c2)[C@@H](CO)O1)c1ccccc1 |
| 16 | -39[16.7 µM] | C[C@@H]1CCCCO[C@@H](CN(C)C(=O)Nc2ccccc2)[C@H](C)CN([C@@H](C)CO)C(=O)c2cc(NS(=O)(=O)c3cccs3)ccc2O1 |
| -14 | 0[16.7 µM] | O=C(C[C@@H]1C=C[C@@H](NC(=O)C2CCC2)[C@@H](CO)O1)NCC1CC1 |
| -3 | 50[16.7 µM] | CS(=O)(=O)Nc1ccc2c(c1)[C@H]1C[C@H](CC(=O)NCCN3CCCCC3)O[C@H](CO)[C@H]1O2 |
| -12 | 4[16.7 µM] | C[C@@H]1CN([C@H](C)CO)S(=O)(=O)c2ccc(-c3cccnc3)cc2O[C@@H]1CN(C)C(=O)C1CCC1 |
| -9 | 1[16.7 µM] | Cc1noc(C)c1NC(=O)N(C)C[C@H]1Oc2ccc(NC(=O)CCC(F)(F)F)cc2CC(=O)N([C@@H](C)CO)C[C@@H]1C |
| 36 | 24[16.7 µM] | CC(C)C#Cc1cnc2c(c1)C(=O)N([C@H](C)CO)C[C@H](C)[C@@H](CN(C)Cc1ccccn1)O2 |
| 32 | 5[16.7 µM] | C[C@@H]1CN([C@@H](C)CO)C(=O)c2cc(NC(=O)Nc3cccc4ccccc34)ccc2O[C@@H](C)CCCCO[C@H]1CN(C)CC1CC1 |
| 11 | 14[16.7 µM] | Cc1noc(C)c1NC(=O)Nc1ccc2c(c1)CC(=O)N([C@@H](C)CO)C[C@H](C)[C@H](CN(C)S(=O)(=O)c1ccccc1)O2 |
| -20 | 20[16.7 µM] | CO[C@@H]1CN(C)C(=O)c2ccc(NS(=O)(=O)C3CCCCC3)cc2OC[C@@H](C)NC[C@@H]1C |
| 5 | -3[16.7 µM] | C[C@@H]1CN([C@@H](C)CO)C(=O)Cc2cc(NS(=O)(=O)c3ccccc3)ccc2O[C@H]1CN(C)S(=O)(=O)c1ccccc1 |
| 5 | 5[16.7 µM] | CCCN1C[C@H](C)[C@H](OC)CN(C)C(=O)c2cc(NC(=O)c3ccccc3F)ccc2OC[C@@H]1C |
| 3 | 5[16.7 µM] | CC(C)NC(=O)N(C)C[C@H]1Oc2cc(-c3ccccc3)ccc2S(=O)(=O)N([C@@H](C)CO)C[C@@H]1C |
| 0 | -15[16.7 µM] | CN(C)CCCNC(=O)C[C@@H]1C=C[C@H](NS(=O)(=O)c2ccc(F)cc2)[C@H](CO)O1 |
| -4 | -32[16.7 µM] | COc1ccc(NC(=O)N(C)C[C@H]2OCCCC[C@H](C)Oc3ccc(NC(=O)Cc4ccccc4)cc3C(=O)N([C@H](C)CO)C[C@H]2C)cc1 |
